# Gli-Sufu antag – antagonists of Gli-Sufu signaling; Sufu-KO-LIGHT fibroblasts, Gli luciferase reporter luminescence; inhibition, % at 5 µM; 340,000 tested, 0.74% active;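 active = inhibition above about 55%, limit read from the data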;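 note: 0% = DMSO-treated cells and 100% = wells with medium but no cells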
# SENP8 block – SENP8 protease inhibition; Q96LD8; purified SENP8, Z-RLRGG-aminoluciferin cleavage, luminescence; inhibition, % at 10 µM; 330,000 tested, 1.2% active
# Jurkat NFkB inh – inhibitors of the PMA/ionomycin-induced NF-kB reporter in Jurkat cells | PMA/ionomycin-induced NF-kB luciferase reporter, luminescence | inhibition, % at 4 µM | 330,000 tested, 0.53% active | AID 435003
# UBC13 polyUb – inhibitors of human UBC13 polyubiquitin chain formation. TR-FRET. inhibition, % at 20 µM. 330,000 tested, 0.47% active; in the data active = inhibition above about 45%, passing the limit was not always enough
# Apaf-1 inh – blocks human Apaf-1 apoptosome activity; O14727; reconstituted apoptosome caspase-3 activity, DEVD-Rh110 fluorescence; inhibition, % at 20 µM; 330,000 tested, 0.71% active; active = inhibition of at least 40% at 20 µM;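 note: plate controls were DMSO wells for no effect and DEVD-CHO caspase inhibitor wells for full effect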
#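 System: reconstituted apoptosome with Apaf-1, cytochrome c, caspase-9, procaspase-3, dATP; Signal: Rh110 fluorescence intensity; Schedule: 30 min compound preincubation, 50 min activation, room temperature; Reagent: cytochrome c trigger plus (Z-DEVD)2-Rh110 caspase-3 substrate.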
# EBI2 antag – antagonists of human EBI2 receptor | P32249 | EBI2 beta-arrestin recruitment, luminescence, 7a,25-OHC stimulated | inhibition, % at 5 µM | 360,000 tested, 0.81% active | AID 651636; in the data active = inhibition above about 38%;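 note: enzyme fragment complementation signal reports receptor beta-arrestin coupling in cells; 0% = agonist plus DMSO wells and 100% = wells without agonist; some results beyond the cut were filed as inactive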
# 697 NFkB inh – inhibitors of the PMA/ionomycin-induced NF-kB reporter in 697 B cells; 330,000 tested, 0.33% active; inhibition, % at 4 µM; 697 B-cell NF-kB luciferase reporter, 16 h; AID 435022; in the data active = inhibition above about 35%
# Active calls of the source: *; . = not tested or not shown; & = joins results of further samples. Cut-off read from the data, not from the text of the source, unless noted: active = inhibition above about 50%; inactive = the rest. Only part of the results is shown. The share of hits here may be higher or lower than overall.
# Preview, 13 compounds:
cpd	smiles	Gli-Sufu antag	SENP8 block	Jurkat NFkB inh	UBC13 polyUb
1	Cc1ccc(NN2C(=O)C=C(c3ccccc3)C2=O)cc1	3.7	0.2	17.5	6.7
2	O=C(NCCCN1CCOCC1)c1cnn2c(-c3ccccc3)cc(-c3ccccc3)nc12	31.6	-0.1	15.7	20.2
3	COc1ccccc1C(=O)NNC(=O)c1nn(Cc2ccccc2)c(=O)c2ccccc12	-14.2	3.7	-14.3	-2.7
4	Cc1cc(NN)nc2ccc(Cl)cc12	10.5	0.4	-0.7	0.8
5	CS(=O)(=O)c1cc([N+](=O)[O-])c(Sc2nc3ccccc3[nH]2)c([N+](=O)[O-])c1	-12.4	4.8	-7.6	-23.5
6	O=C(NCCN1CCOCC1)c1cnn2c(-c3ccccc3)cc(-c3ccccc3)nc12	10.5	-7.4	-19.1	8.6
7	CCOC(=O)/C=C/C(=O)Nc1cccc([N+](=O)[O-])c1	-2.9	-10.7	2.9	-2.7
8	Cc1c(N=NC2=C(O)CC(C)(C)CC2=O)c(=O)n(-c2ccccc2)n1C	16.7	-1.2	-4.3	-59.2
9	Cc1ccccc1N1C(=O)CC(Sc2nnc(-c3ccccc3)o2)C1=O (configuration not stated)	1.7	-1.8	11.4	-7.6
10	O=C1C(Cc2ccccc2)Nc2ncnc(N3CCOCC3)c2N1Cc1ccc(Br)cc1 (configuration not stated)	1.7	-1.7	10.0	3.8
11	Cc1cccc(NC(=O)CSc2nccn2Cc2ccco2)c1	-50.1	-10.2	-62.0	-5.4
12	O=C1C=CC(=O)N1c1ccc(N2CCCCC2)cc1	-1.6	8.7	-9.9	9.9
13	COC(=O)C1=NN(C(=O)c2cccc(Br)c2)C(O)(c2ccc(Cl)cc2)C1 (configuration not stated)	-5.6	0.6	-7.1	-46.8

cpd	Apaf-1 inh	EBI2 antag	697 NFkB inh
1	9.4	-11.1	3.5
2	0.4	22.4	29.7
3	8.8	15.5	3.6
4	1.7	-4.3	3.6
5	1.0	1.0	-13.6
6	15.6	35.1	26.6
7	8.9	-2.5	8.2
8	-5.9	-3.0	8.9
9	1.8	0.8	8.6
10	4.6	15.9&26.5	8.8
11	0.5	15.0	-61.8
12	-5.2	7.2	5.9
13	-6.8	-19.1	2.8

# The list itself, previewed entries included:
cpd	smiles	Gli-Sufu antag	SENP8 block	Jurkat NFkB inh	UBC13 polyUb
1	Cc1ccc(NN2C(=O)C=C(c3ccccc3)C2=O)cc1	3.7	0.2	17.5	6.7
2	O=C(NCCCN1CCOCC1)c1cnn2c(-c3ccccc3)cc(-c3ccccc3)nc12	31.6	-0.1	15.7	20.2
3	COc1ccccc1C(=O)NNC(=O)c1nn(Cc2ccccc2)c(=O)c2ccccc12	-14.2	3.7	-14.3	-2.7
4	Cc1cc(NN)nc2ccc(Cl)cc12	10.5	0.4	-0.7	0.8
5	CS(=O)(=O)c1cc([N+](=O)[O-])c(Sc2nc3ccccc3[nH]2)c([N+](=O)[O-])c1	-12.4	4.8	-7.6	-23.5
6	O=C(NCCN1CCOCC1)c1cnn2c(-c3ccccc3)cc(-c3ccccc3)nc12	10.5	-7.4	-19.1	8.6
7	CCOC(=O)/C=C/C(=O)Nc1cccc([N+](=O)[O-])c1	-2.9	-10.7	2.9	-2.7
8	Cc1c(N=NC2=C(O)CC(C)(C)CC2=O)c(=O)n(-c2ccccc2)n1C	16.7	-1.2	-4.3	-59.2
9	Cc1ccccc1N1C(=O)CC(Sc2nnc(-c3ccccc3)o2)C1=O (configuration not stated)	1.7	-1.8	11.4	-7.6
10	O=C1C(Cc2ccccc2)Nc2ncnc(N3CCOCC3)c2N1Cc1ccc(Br)cc1 (configuration not stated)	1.7	-1.7	10.0	3.8
11	Cc1cccc(NC(=O)CSc2nccn2Cc2ccco2)c1	-50.1	-10.2	-62.0	-5.4
12	O=C1C=CC(=O)N1c1ccc(N2CCCCC2)cc1	-1.6	8.7	-9.9	9.9

cpd	Apaf-1 inh	EBI2 antag	697 NFkB inh
1	9.4	-11.1	3.5
2	0.4	22.4	29.7
3	8.8	15.5	3.6
4	1.7	-4.3	3.6
5	1.0	1.0	-13.6
6	15.6	35.1	26.6
7	8.9	-2.5	8.2
8	-5.9	-3.0	8.9
9	1.8	0.8	8.6
10	4.6	15.9&26.5	8.8
11	0.5	15.0	-61.8
12	-5.2	7.2	5.9

# 2 compounds from above with just Jurkat NFkB inh:
no.	structure	Jurkat NFkB inh
10	O=C1C(Cc2ccccc2)Nc2ncnc(N3CCOCC3)c2N1Cc1ccc(Br)cc1 (configuration not stated)	10.0
6	O=C(NCCN1CCOCC1)c1cnn2c(-c3ccccc3)cc(-c3ccccc3)nc12	-19.1

# The list goes on:
cpd	smiles	Gli-Sufu antag	SENP8 block	Jurkat NFkB inh	UBC13 polyUb
13	COC(=O)C1=NN(C(=O)c2cccc(Br)c2)C(O)(c2ccc(Cl)cc2)C1 (configuration not stated)	-5.6	0.6	-7.1	-46.8
14	O=C(N/N=C(\c1ccccc1)c1ccccn1)c1cccc([N+](=O)[O-])c1	91.3*	-6.7	47.8	-23.3
15	NC(N)=N/N=C/c1ccc2cccc(OCc3ccccc3)c2n1	41.8	-11.4	33.8	50.1*
16	CN(C)c1ccc(Cc2cc3c(O)ccc(O)c3cc(Cc3ccc(N(C)C)cc3)c2=O)cc1	13.3	.	.	.
17	CCCOc1ccc(CN(CCC#N)C(=S)NC(=O)c2ccccc2)cc1	-7.8	0.5	5.1	-5.3
18	COc1ccc(-c2cc(N)n(S(=O)(=O)c3c(F)c(F)c(F)c(F)c3F)n2)cc1OC	10.1	13.8	7.7	-19.4
19	COc1ccc2nc(Nc3nc(C)c(C(C)=O)s3)sc2c1	-56.3	8.8	-52.0	7.4
20	Cc1ccc(C(=O)NNC(=S)NC(=O)c2ccccc2)cc1	-6.6	-1.7	-15.8	-34.5
21	Cc1cc(C(=O)OCC(=O)c2cccc([N+](=O)[O-])c2)c2ccccc2n1	11.6	2.5	1.6	0.2
22	CC(C)CC1Nc2ncnc(N3CCN(c4ccccn4)CC3)c2N(Cc2ccc(Br)cc2)C1=O (configuration not stated)	7.1	-4.6	0.0	-15.0
23	C/C(=N\NC(=S)NCCc1ccccc1)c1ccc(Cl)cc1Cl	26.8	-0.6	13.4	9.8
24	Fc1ccc(-n2cc(-c3ccccc3)c3c(N4CCOCC4)ncnc32)cc1	.	-11.3	33.8	-1.4

cpd	Apaf-1 inh	EBI2 antag	697 NFkB inh
13	-6.8	-19.1	2.8
14	-2.3	65.8*	8.2
15	4.4	10.9	-73.6
16	.	-56.3	.
17	7.2	3.5	1.4
18	-2.0	9.6	-22.4
19	20.6	11.4	-74.7
20	-1.1	-6.2	-23.7
21	0.3	6.6	0.6
22	15.8	18.5&16.4	4.4
23	13.9	12.8	-3.3
24	15.8	30.0	-33.9

# Later entries.
cpd	smiles	Gli-Sufu antag	SENP8 block	Jurkat NFkB inh	UBC13 polyUb
25	CC(=O)N1c2ccc(S(=O)(=O)N3CCCC(C(=O)Nc4cccc(Cl)c4)C3)cc2CC1C (configuration not stated)	-0.9	-3.2	28.0	-0.1
26	COC(CNC(=O)c1ccc2c3c(onc13)-c1ccccc1C2=O)OC	-58.3	23.3	-85.1	-229.1
27	O=C(Oc1ccc(Cl)c2cccnc12)c1cccnc1	-23.8	8.3	3.6	-14.2
28	CC(=O)Oc1ccccc1C(=O)C=Cc1cccc([N+](=O)[O-])c1	0.8	.	.	.
29	C/C(=N\NC(=O)c1cc(C)nc2ccccc12)c1ccccn1	89.9*	8.4	94.6*	-70.6
30	O=C(c1ccccc1)c1ccccc1N1C(=O)C=CC1=O	3.0	-10.4	9.0	3.1
31	COc1cccc(-c2nnc(NC(=O)c3ccc(Cl)s3)o2)c1	-16.3	24.6	11.0	-16.8
32	CC(NC(=O)/C(C#N)=C/c1ccc([N+](=O)[O-])o1)c1ccccc1 (configuration not stated)	-0.6	-8.8	13.2	-24.1
33	CCCCCCCn1c(NC(=O)CC)nc2ccccc21	-4.6	-0.3	-4.1	23.8
34	Cc1ccc(C(=O)Oc2ccc(Cl)c3cccnc23)cc1[N+](=O)[O-]	-3.4	-5.5	5.8	-11.3
35	N=C1SCC(=O)N1c1ncc(Cc2cccc(Cl)c2)s1	-4.7	.	.	.
36	CCCCn1c(N)c(C(=S)NC(=O)CC(C)C)c(=O)n(C)c1=O	9.0	.	.	.

cpd	Apaf-1 inh	EBI2 antag	697 NFkB inh
25	5.5	0.5	0.4
26	72.7*	12.6	-113.4
27	-14.4	3.7	26.5
28	.	16.4	.
29	-4.0	38.0	-76.8
30	1.4	4.0	-0.4
31	2.6	-6.3	-3.3
32	11.6	36.3	-3.3
33	0.2	-18.2	-10.4
34	7.6	28.0	10.0
35	.	-8.5	.
36	.	1.3	.
